# Bioassay records from PubChem.
# D2 agonist – agonists of human D2 dopamine receptor (beta-arrestin) | P14416 | DiscoveRx PathHunter D2 beta-arrestin, luminescence, 90 min; 100% = 57 uM dopamine signal | activation, % (test concentration not listed) | 0.084% of 360,000 active | AID 624465; in the data active = activation above about 40%; inconclusive = about 15% to 40%; inactive = below about 15%; note: compound concentration not given in the record; the text of the record calls up to 30% inactive
# Target sequence (P14416 whole entry, looked up): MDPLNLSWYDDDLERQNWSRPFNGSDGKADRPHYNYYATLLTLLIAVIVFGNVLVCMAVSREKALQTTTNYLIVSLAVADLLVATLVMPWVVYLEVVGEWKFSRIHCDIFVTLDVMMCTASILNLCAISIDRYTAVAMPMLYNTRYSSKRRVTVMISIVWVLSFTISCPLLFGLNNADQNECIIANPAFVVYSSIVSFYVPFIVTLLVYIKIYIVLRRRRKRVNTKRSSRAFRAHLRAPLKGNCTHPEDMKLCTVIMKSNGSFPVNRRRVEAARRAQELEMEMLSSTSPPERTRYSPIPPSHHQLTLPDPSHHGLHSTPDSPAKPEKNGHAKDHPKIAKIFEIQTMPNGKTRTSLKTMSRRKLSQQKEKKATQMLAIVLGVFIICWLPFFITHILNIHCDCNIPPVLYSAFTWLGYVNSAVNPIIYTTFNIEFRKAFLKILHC
#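 DiscoveRx PathHunter D2 beta-arrestin cells (2,100/well) attached overnight, then compound-stimulated 90 min at 37 C in HBSS/10 mM HEPES/0.1% Tween-20 buffer; beta-galactosidase complementation read by luminescence after 1 h at ambient temperature. Dopamine 57 uM final (EC100) as control.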
# CtBP-E1A inh – blocks the CtBP interaction with E1A | AlphaScreen GST-E1A/His-CtBP binding, 1536-well; hits give low values; control for the full effect not named in the record | activity change, % (no concentration beside the values) | 0.49% of 340,000 active | AID 651724; in the data active means activity change below about -65%; inconclusive means about -30% to -65%; inactive means above about -30%; note: % is set by controls: 0 for no effect and ±100 for the full control effect; compound concentration not given in the record
#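 Homogeneous bead-based format: GST-tagged E1A captured on glutathione donor beads, His-tagged CtBP on nickel acceptor beads; compounds precede bead addition by 2 h at 37 °C.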
# TRPML1 ag – activates the human TRPML1 channel. AID 624414. 0.12% of 410,000 active. Q9GZU1. activation, % (no concentration beside the values). TRPML1-expressing cells, Ca2+ dye fluorescence, FDSS; host cell line not named in the record; reference of the full effect not given here; in the data active = activation above about 50%; inconclusive = about 30% to 50%; inactive = below about 30%; note: 0% is about no effect; the text of the record puts the active cut at 80%
# Target sequence (Q9GZU1 whole entry, looked up): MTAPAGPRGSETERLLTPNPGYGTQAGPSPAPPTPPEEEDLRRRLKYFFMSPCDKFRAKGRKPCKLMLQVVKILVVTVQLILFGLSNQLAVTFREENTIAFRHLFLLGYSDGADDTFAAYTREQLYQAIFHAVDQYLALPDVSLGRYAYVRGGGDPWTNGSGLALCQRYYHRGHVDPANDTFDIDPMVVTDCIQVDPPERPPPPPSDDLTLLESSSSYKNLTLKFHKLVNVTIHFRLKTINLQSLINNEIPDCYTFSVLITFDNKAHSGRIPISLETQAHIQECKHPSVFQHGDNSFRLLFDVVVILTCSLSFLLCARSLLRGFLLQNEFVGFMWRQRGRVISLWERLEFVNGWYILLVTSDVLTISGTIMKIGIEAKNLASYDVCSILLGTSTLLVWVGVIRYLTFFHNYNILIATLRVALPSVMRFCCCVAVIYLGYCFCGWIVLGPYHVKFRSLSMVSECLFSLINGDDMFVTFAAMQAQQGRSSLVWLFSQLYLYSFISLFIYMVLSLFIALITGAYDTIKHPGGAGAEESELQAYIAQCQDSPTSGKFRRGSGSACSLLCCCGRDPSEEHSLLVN
#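 Tetracycline-induced TRPML1-DL cells are seeded and incubated overnight before loading with a no-wash Ca2+ dye and quencher. Agonist activity is taken from the 110 s fluorescence read following compound pin-transfer on an FDSS, before EC80 54-4 challenge.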
# PINK1 expr mod – PINK1 expression modulation | Potency, µM (series often up to 76.6 µM), for the others: top-dose activation (PINK1 increase), actives largely listed as activators | PINK1 immunofluorescence, high-content cytometry, 24 h | 0.2% of 410,000 active; active = well fitted activation curve with a large enough effect; inconclusive = small, poorly fitted or top-dose-only effect; inactive = flat fitted curve, though single readings scatter; cell line not stated here;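 note: potency is the fitted concentration of half-maximal effect; % of control where 0% means no effect; nearly all actives have a fitted effect of over 65% in size; a mitochondrial uncoupler was the plate control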
#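 Readout is PINK1 immunofluorescence, quantified alongside mitochondrial, cell and nuclear markers by laser-scanning microplate cytometry. Cells from a stable line were exposed to compound titrations (5 concentrations) for 24 hours, with CCCP controls.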
# Six1-Eya2 inh – blocks human Six1 binding to Eya2; Q15475+O00167; AID 651725; activity change, % (no concentration beside the values); 0.56% of 360,000 active; AlphaScreen GST-Six1/His-Eya2 binding, biochemical; hits give low values; control for the full effect not named in the record; in the data active = activity change below about -65%; inconclusive = about -30% to -65%; inactive = above about -30%; note: % is set by controls: 0 for no effect and ±100 for the full control effect; compound concentration not given in the record
#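 AlphaScreen luminescence read after one hour at 37 °C in darkness. Pin-transferred compounds met GST-Six1 and His-Eya2 protein (5X stock 250 nM/500 nM) plus glutathione donor and Ni-chelate acceptor beads (5X, 50 ug/mL).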
# D2 potentiator – potentiates the human D2 dopamine receptor allosterically; AID 624464; DiscoveRx D2 beta-arrestin cells, luminescence, 90 min; 100% = 57 uM dopamine signal; potentiation, % (no concentration beside the values); 0.23% of 360,000 active; active = potentiation of 50% or more; inconclusive = 30% to 50%; inactive = 30% or less;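 note: compound concentration not given in the record; tested on top of an EC20 dose of dopamine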
#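 D2 cells co-treated with compound plus 50 nM dopamine (EC20) for 90 min at 37 deg C to detect potentiation. Beta-arrestin recruitment was read as enzyme-fragment luminescence after 1 h at ambient temperature. Full response was set by 57 uM dopamine.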
# * marks the source's active call; other numbers are inactive results; ? = inconclusive; · = not tested or not shown; & = joins results of further samples; [ ] = another dose, or the depositor's remark.
SMILES,D2 agonist,CtBP-E1A inh,TRPML1 ag,PINK1 expr mod,Six1-Eya2 inh,D2 potentiator
Cc1nc2nc(N)nn2c(C)c1C/C=C/c1ccccc1,-0.8,7,0.0,-1.0%,4,-3
COCOCCn1cc(CN2CCS(=O)(=O)N(Cc3ccc(-c4ccc(C)cc4)cc3)C(CC(C)C)C2=O)nn1 (configuration not stated),-0.2,0,-0.3,-0.6%,5,-10
COc1ccc(CN2C[C@@H](CO)O[C@@H](n3cnc4c(NC5CC5)ncnc43)C2)cc1,-2.6,8,1.1,1.3%,2,-6
CC(C)=NNc1nc(-c2ccc(N3C(=O)CCC3=O)cc2)cs1,-5.8,-4,0.4,0.2%,-6,-7
O=C(COC(=O)C1(c2ccccc2F)CCCC1)N1CCNC1=O,3.6,8,-0.4,1.5%,1,0
Cc1nc2ccccc2n(CC(=O)Nc2cc(Cl)cc(Cl)c2)c1=O,7.5,8,1.1,-1.4%,-2,-11
COc1ccc(OC)c(NC(=O)CCNS(=O)(=O)c2ccc3c(c2)oc(=O)n3C)c1,0.4,-5,-0.7&0.4,-0.3%&-1.7%,27,-5
Cc1n[nH]c(C)c1CN(C)C(=O)C1CCC(=O)N(CCc2cccc(F)c2)C1 (configuration not stated),4.1,-13,0.5,-0.7%,1,-9
O=C1CNC(=S)N1C(CO)c1ccccc1 (configuration not stated),-3.2,9,-0.1,-1.2%,2,-4
O=c1cc2c(nn1Cc1ccccc1)-c1ccccc1CC2,-7.9,-2,-0.5,-0.3%,8,-7
O=c1[nH]c(=O)n(Cc2ccco2)c2c1C(C(F)(F)F)(C(F)(F)F)N=C(c1ccco1)N2,-2.8,5,0.1,1.0%,3,-14
CCOC(=O)C1=C(CS(=O)(=O)c2ccc(C)cc2)NC(=O)NC1c1cc(OC)c(O)c(OC)c1 (configuration not stated),-0.3,3,-0.6,-1.8%,-1,-1
Cc1ccc(-c2n[nH]c(=O)c3ccccc23)cc1S(=O)(=O)NC(C)(C)C,-1.6,3,3.2,5.2%,-3,-1
CCN(C(=O)COC(=O)c1cccc(S(=O)(=O)N(C)C)c1)c1c(N)n(Cc2ccccc2)c(=O)[nH]c1=O,0.7,·,0.0,5.9%,-1,-5
Cc1ccc(Oc2ccc(NS(=O)(=O)c3cccc(C(=O)O)c3)cc2)cc1,-0.2,-7,-0.1,0.2%,-11,-9
CN(Cc1ccccc1)c1cc2c(c3c1ccn3C)C1CCC2O1 (configuration not stated),4.0,?,0.5,8.7%,?,0
C=CCN(C)CC/C=C1\c2ccccc2CSc2ccccc21,-2.0,-18,0.0,4.8%,-29,-32
CC(=O)Nc1ccc(N2CCN(Cc3ccccc3)CC2)cc1,0.6,·,1.0,0.3%,0,-8
Cc1cc(NC(=O)Cn2cnc3c(cnn3C(C)(C)C)c2=O)no1,-3.9,-2,-0.6,1.3%,-3,-17
CC(C)(C)NC(=O)C(OC(=O)c1ccco1)c1ccc(Cl)cc1 (configuration not stated),-3.3,·,·,7.2%,-1,5
CCNC(=S)N(Cc1ccco1)Cc1cc2cc3c(cc2[nH]c1=O)OCCO3,1.9,-9,-0.7,1.5%,-11,-15
O=c1c2ccccc2c(C=Nc2ccc(S(=O)(=O)N3CCCCC3)cc2)c(O)n1-c1ccc(Cl)cn1,3.8,-13,0.6,1.6%,6,-1
COc1ccccc1NS(=O)(=O)c1cc([N+](=O)[O-])ccc1N/N=C/c1sc(N2CCOCC2)nc1-c1ccccc1,-4.4,7,4.9,-0.5%,-1,-22
COc1ccc(/C=C\C(=O)CC(O)(c2ccccc2)C(F)(F)F)cc1 (configuration not stated),-1.6,0,3.8,3.4%[38.3 µM],2,-6
CCCCc1c(Cc2ccccc2)ncn1CCc1ccccc1OC,·,-23,-0.7,?,-18,·
CCOc1ccccc1NC(=O)COC(=O)c1cc(C(=O)OC)cc([N+](=O)[O-])c1,-10,-24,0.0,1.4%,19,2
CCOc1ccc2[nH]c3nc(SCC(=O)NC4CCCC4)nnc3c2c1,0.3,-22,0.1,9.1%,?,-5
O=C(NCCCN1CCOCC1)c1cc(Cl)ccc1Cl,-3.5,3,6.0,0.7%,4,-4
COC(=O)c1cccc(NC(N)=S)c1,-4.1,-21,0.0,-0.1%,-15,-6
O=C1/C(=C/c2ccncc2)CCC/C1=C\c1ccncc1,-7.8,2,·,-1.4%,-8,-25
COc1ccc(CCNC2CC(C)N(C)CC2C)cc1OC (configuration not stated),0.2,-2,1.0,-4.1%[38.3 µM],4,-3
Cc1cc(C)c(OCC(O)CN2CCN(c3ccccn3)CC2)c(C)c1 (configuration not stated),48*,-2,0.8,12%,-4,?
O=C(c1ccco1)N1CCN(C(=O)c2oc(=O)c3ccccc3c2-c2ccccc2)CC1,8.0,-18,0.8,1.5%,-24,0
CCN1CCN(C(=O)c2cc(-c3cccnc3)nc3ccc(Br)cc23)CC1,-2.3,3,-1.1,-0.7%,5,5
Cn1c(=O)c([N+](=O)[O-])c(NCc2ccc3c(c2)OCO3)c2ccccc21,-5.0,-22,0.1,3.6%,-12,-4
Cc1ccc(S(=O)(=O)N(CC(=O)Nc2ccc(Cl)c([N+](=O)[O-])c2)C2CCCCC2)cc1,-8.1,-19,0.8,-1.7%,-14,-33
C(=C\c1ccccc1)/CN1CCN(C(c2cccc3ccccc23)c2nnnn2Cc2ccccc2)CC1 (configuration not stated),-6.7,-29,-0.6,-0.4%,-26,-13
C=CCn1c(N)c(C(=O)Nc2ccc(C)cc2)sc1=S,4.9,·,0.3,3.5%,-6,9
COC(=O)C1N[C@@H]([C@@H](NC(=O)COc2ccccc2)C(=O)Nc2ccc(OC)cc2)SC1(C)C (some centres not stated),-1.1,·,0.9&-0.5,-0.9%,-2,-5
CC(C)C(=O)Nc1cccc(COc2cccc(CN(Cc3ccccc3)C(=O)OC(C)(C)C)c2)c1,-0.3,-8,0.9,2.0%,3,1
CC(=O)Nc1ccc(N)cc1,-3.8,1,-0.4,0.0%,-2,-6
COC(=O)c1ccc(CN2C(=O)c3ccccc3S2(=O)=O)cc1,-0.6,6,3.2,2.9%[38.3 µM],5,-6
O=C(NCCc1ccccc1)c1cc(-c2ccc3c(c2)OCO3)on1,-3.1,9,0.1,1.2%[38.3 µM],-1,-10
CN(C)c1nc2c(c(=O)[nH]c(=O)n2C)n1CCOc1ccccc1,1.9,-1,0.2,1.6%,0,-2
CC(C)N(C(=O)Cc1ccccc1[N+](=O)[O-])C(C)C,-0.6,5,1.2,-0.5%,9,-1
O=C(Nc1ccncc1)c1ccc(C(=O)Nc2ccncc2)cc1,4.0,·,0.3,6.0%,11,-8
Cn1c(=O)c2c(nc(SCCCC#N)n2Cc2c(F)cccc2Cl)n(C)c1=O,0.0,0,1.3,0.3%,-5,-2
CC(=O)Nc1cc(S(=O)(=O)Nc2ccccc2C)c(C)cc1C,0.8,4,0.8,-1.1%,11,6
O=C(O)c1cccc(Nc2nc(-c3cccnc3)nc3ccccc23)c1,-1.7,?,0.5,-0.2%,-80*,5
CC(C)(C)OC(=O)N1CCC(CNC(=O)c2ccc(F)cc2F)CC1,3.3,1,1.7,-1.2%,1,0
Cc1[nH]c(=O)[nH]c(=S)c1C(=O)Nc1ccc(Cl)c(Cl)c1,-5.4,-3,4.5,1.0%,-4,-9
COCCn1c(=S)[nH]c2cc(C(=O)N3CCN(c4ccc(F)cc4)CC3)ccc2c1=O,-0.3,-2,-0.4,-2.4%[38.3 µM],6,-6
Cc1cc(C)cc(NC(=O)c2cccn2-c2ncc(C(F)(F)F)cc2Cl)c1,-3.0,7,1.5,3.4%[38.3 µM],-1,-19
Cc1nc2ccccc2c(=O)n1-c1ccc(NS(=O)(=O)c2cc(F)ccc2F)cc1,2.7,-14,0.0,0.7%,6,-10
O=C(O)C1CCCCC1C(=O)NCCCc1ccccc1 (configuration not stated),-1.6,6,-0.6,-1.8%,-2,-7
CC1=C(C(=O)N2CCOCC2)CC(CC(=O)NCCCN(C)C)C(=O)N1CCCN1CCCC1=O (configuration not stated),·,2,1.0,0.6%,1,·
CCN1C(=NCc2ccc(OC)cc2)N[C@@H](CCc2ccccc2)[C@H](C(=O)NCc2ccc(OC)cc2)[C@H]1C,-1.5,0,0.9,0.9%,-4,-15
O=C(/C=C/c1ccc(Cl)cc1)NCCCn1ccnc1,0.2,3,1.9,-1.4%,-1,-11
COc1cc(OC)cc(-c2sc3ccc(OC)cc3c2C#CC2(N)CCCCC2)c1,2.6,-3,0.4,-1.9%,-5,-17
Cc1ccc(S(=O)(=O)NC2c3cccc4cccc(c34)C2Sc2nncn2C)cc1 (configuration not stated),4.0,-6,0.7,1.3%,2,14

# Next part.
SMILES,D2 agonist,CtBP-E1A inh,TRPML1 ag,PINK1 expr mod,Six1-Eya2 inh,D2 potentiator
Cc1cc(OC(C)C(=O)NCCCN2CCCC2=O)c2c(C)c(C)c(=O)oc2c1 (configuration not stated),7.4,1,-1.2,1.3%,-2,0
COC(=O)C1(C)NC(c2ccc(C)cc2)C2C(=O)N(c3ccc(F)cc3)C(=O)C21 (configuration not stated),7.3,0,0.5,-0.3%,28,0
CCc1ccc(NC(=O)CN(c2ccc3c(c2)OCO3)S(=O)(=O)c2c(C)noc2C)cc1,-3.6,-1,0.7,13%,-11,0
CCn1c(SC(C)C(=O)Nc2ccc(N3CCOCC3)cc2)nnc1-c1ccco1 (configuration not stated),0.6,4,0.6,3.1%,-7,-3
O=S(=O)(Nc1ccccc1F)c1ccc(Cl)nc1,-3.1,1,-0.5,3.6%,2,-3

# Entries shown so far that contain an NH in an aromatic ring, in the order listed:
SMILES,D2 agonist,CtBP-E1A inh,TRPML1 ag,PINK1 expr mod,Six1-Eya2 inh,D2 potentiator
Cc1n[nH]c(C)c1CN(C)C(=O)C1CCC(=O)N(CCc2cccc(F)c2)C1 (configuration not stated),4.1,-13,0.5,-0.7%,1,-9
O=c1[nH]c(=O)n(Cc2ccco2)c2c1C(C(F)(F)F)(C(F)(F)F)N=C(c1ccco1)N2,-2.8,5,0.1,1.0%,3,-14
Cc1ccc(-c2n[nH]c(=O)c3ccccc23)cc1S(=O)(=O)NC(C)(C)C,-1.6,3,3.2,5.2%,-3,-1
CCN(C(=O)COC(=O)c1cccc(S(=O)(=O)N(C)C)c1)c1c(N)n(Cc2ccccc2)c(=O)[nH]c1=O,0.7,·,0.0,5.9%,-1,-5
CCNC(=S)N(Cc1ccco1)Cc1cc2cc3c(cc2[nH]c1=O)OCCO3,1.9,-9,-0.7,1.5%,-11,-15
CCOc1ccc2[nH]c3nc(SCC(=O)NC4CCCC4)nnc3c2c1,0.3,-22,0.1,9.1%,?,-5
CN(C)c1nc2c(c(=O)[nH]c(=O)n2C)n1CCOc1ccccc1,1.9,-1,0.2,1.6%,0,-2
Cc1[nH]c(=O)[nH]c(=S)c1C(=O)Nc1ccc(Cl)c(Cl)c1,-5.4,-3,4.5,1.0%,-4,-9
COCCn1c(=S)[nH]c2cc(C(=O)N3CCN(c4ccc(F)cc4)CC3)ccc2c1=O,-0.3,-2,-0.4,-2.4%[38.3 µM],6,-6
